# FGF22 binding – FGF22 (human) thermal shift binding; AID 651658; Q9HCT0; recombinant FGF22 thermal shift, SYPRO orange fluorescence; percent of sucrose octasulfate shift, DMSO zero; 340,000 compounds, 1.5% hits; calls only at 9.99 µM;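 active = melting point raised past a set limit in the mean and every replicate; inconclusive = no clear call; three in four hits are not shown here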
# Target sequence (Q9HCT0 whole entry, looked up): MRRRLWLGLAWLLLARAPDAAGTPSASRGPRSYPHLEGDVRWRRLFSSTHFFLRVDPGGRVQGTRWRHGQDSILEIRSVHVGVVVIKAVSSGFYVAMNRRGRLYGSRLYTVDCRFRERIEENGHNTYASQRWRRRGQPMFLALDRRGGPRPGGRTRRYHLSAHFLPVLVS
# MLL AF4-AF9 inh – blocks AF4 peptide binding to human AF9; 350,000 compounds, 0.47% hits; AID 651704; AlphaScreen, biotin-AF4 peptide binding to FLAG-AF9; inhibition, % at 10 µM; P42568;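 active = every replicate reaching a set inhibition limit, whatever the replicate mean, cut at about 25% in these data; inconclusive = mean inhibition reaches that limit but some replicates miss it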;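 also: 0% = plate neutral control median and 100% = total signal loss; the record names both 10 and 1 µM as test concentration; the first replicate is given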
# Target sequence (P42568 whole entry, looked up): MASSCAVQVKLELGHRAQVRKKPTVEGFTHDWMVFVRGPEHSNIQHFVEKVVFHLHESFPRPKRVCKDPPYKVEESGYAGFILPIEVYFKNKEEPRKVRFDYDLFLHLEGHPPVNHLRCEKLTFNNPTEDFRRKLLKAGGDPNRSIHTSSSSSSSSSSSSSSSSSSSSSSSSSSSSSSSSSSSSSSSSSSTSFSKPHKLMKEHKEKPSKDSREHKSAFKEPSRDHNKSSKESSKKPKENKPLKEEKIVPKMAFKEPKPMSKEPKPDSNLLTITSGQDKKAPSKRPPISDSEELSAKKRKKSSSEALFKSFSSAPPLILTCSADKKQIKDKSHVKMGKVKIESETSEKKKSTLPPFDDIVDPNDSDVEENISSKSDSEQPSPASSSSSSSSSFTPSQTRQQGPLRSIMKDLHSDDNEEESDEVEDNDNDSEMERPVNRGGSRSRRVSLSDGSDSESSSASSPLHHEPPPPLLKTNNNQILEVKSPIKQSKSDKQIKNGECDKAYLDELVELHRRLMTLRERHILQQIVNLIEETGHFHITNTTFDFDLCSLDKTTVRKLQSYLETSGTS
# Calb FLC – affects C. albicans growth with fluconazole; growth inhibition, % (test concentration not listed); C. albicans CaCi-2 (fluconazole-resistant clinical isolate) + fluconazole, Alamar Blue growth, 48 h; 300,000 compounds, 0.57% hits;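 active = most replicates above 75%; inconclusive = exactly half above 75%; inactive = most below 75%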;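 also: all wells also contain fluconazole at 8 µg/ml as a sub-toxic cotreatment; 0% = median of DMSO wells and 100% = median of geldanamycin control wells; wells of about 8 µL received 7.5 nL stock; the first replicate is given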
# rRNA inh HTS – selective bacterial rRNA inhibition in E. coli; AID 720706; E. coli WT GFP vs humanized-ribosome RFP mutants, fluorescence, 24 h; hits give low values; DMSO median 0, no signal -100; 350,000 compounds, 1.6% hits; GFP signal change (wild-type ribosome), % (concentration not given with the values);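 active = significant combined selectivity score with lowered wild-type GFP, culture density cut under 30%, mutant RFP and density less affected; inactive = any of these conditions unmet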; also: one replicate is shown; some compounds called inactive have numbers as strong as hits
# RanGTP-Impb inh – inhibitors of RanGTP-importin-beta interaction, primary screen, biochemical, FRET, CFP-Ran, YFP-importin-beta, homogeneous; 300,000 compounds, 1.1% hits; AID 2216; inhibition, % (no concentration beside the values); cell-free CFP-Ran/YFP-importin-beta FRET ratio;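 active = most replicates above 15%; inconclusive = exactly half above 15%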;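 also: 0% = DMSO wells and 100% = Ran loaded with GDP instead of GTP; wells of about 40 µL received 100 nL stock; the first replicate is given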
# Beta cell apopt – beta cell apoptosis inhibition | protection from apoptosis, % (test concentration not listed) | INS-1E cytokine-induced death, ATP luminescence, 48 h; percent of positive-control rescue, neutral wells zero | 300,000 compounds, 0.8% hits | AID 435005;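 active = all replicates at 75% or more, or half of them and the mean; inconclusive = half reach 75% but not the mean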;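 also: 0% = cytokine-treated negative control wells and 100% = positive control rescue; higher means more ATP so stronger rescue from cytokine killing; wells of about 40 µL received 100 nL stock; the first replicate is given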
# T cruzi inh – blocks replication of Trypanosoma cruzi; inhibition, % (no concentration beside the values); 300,000 compounds, 1.4% hits; T. cruzi beta-gal in NIH3T3, luminescence, 90 h;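 active = mean inhibition across valid replicates above about 55%, limit read from the data; inconclusive = mean below that limit but half or more replicates reach it; inactive = mean below it, under half of replicates reach it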;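 also: signal also drops with host cell toxicity which is not excluded here; 0% = plate median of DMSO wells and 100% = zero luminescence signal; higher percent means less beta-gal luminescence so fewer parasites; stock transfer was 50 nL into about 50 µL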
# ALR H2O2 inh – blocks human ALR sulfhydryl oxidase activity. P55789. 290,000 compounds, 3.8% hits. AID 485317. inhibition, % (test concentration not listed). purified ALR, DTT oxidation, H2O2 HRP-luminol luminescence;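 active = mean and each replicate at 75% or more; inconclusive = only one of the two met; inactive = neither met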;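 also: stock transfer was 7.5 nL into about 7.5 µL; 0% = neutral wells and 100% = wells with inactivated enzyme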
# Target sequence (P55789 whole entry, looked up): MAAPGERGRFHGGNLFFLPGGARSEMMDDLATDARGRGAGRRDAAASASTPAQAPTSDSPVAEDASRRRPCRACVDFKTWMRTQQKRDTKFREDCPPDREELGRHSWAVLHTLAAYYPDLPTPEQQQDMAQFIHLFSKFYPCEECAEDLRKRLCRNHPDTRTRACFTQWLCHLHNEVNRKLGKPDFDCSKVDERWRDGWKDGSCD
# rRNA inh HTS OD600 – recorded beside rRNA inh HTS, whose call it bears; OD600 change, %; measured here: OD600 growth;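 optical density of the mix in the first replicate; 0 = DMSO median and -100 = no signal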
# rRNA inh HTS RFP – recorded beside rRNA inh HTS, whose call it bears; RFP signal change, %; measured here: RFP humanized mutant strains;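 first replicate; 0 = DMSO median and -100 = no signal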
# An asterisk follows results filed as active; i = inactive; ? = inconclusive; · = not tested or not shown; & = joins results of further samples. Not all compounds are listed; count on the stated rates, not on these rows.
SMILES,FGF22 binding,MLL AF4-AF9 inh,Calb FLC,rRNA inh HTS,rRNA inh HTS OD600,rRNA inh HTS RFP,RanGTP-Impb inh,Beta cell apopt,T cruzi inh,ALR H2O2 inh
CCN(CC)S(=O)(=O)c1cc(NC(=O)CCn2[nH]c(=O)ccc2=O)ccc1C,i,0.1,·,·,·,·,·,-0.3,·,0.2
COc1ccc(Br)cc1CN(C)C(=O)C1=CC=CN2CCS(=O)(=O)N=C12,i,-0.8,·,1.5,1.7,-3.1,·,0.7,·,·
COc1cccc(NC(=O)Cn2nnc(C(=O)Nc3cc(Cl)ccc3OC)c2N)c1,i,-0.5,2.1,7.2,3.6,2.1,2.5,8.0,-26.9,-2.1
Cc1ccc2nc(-c3ccccc3)cc(C(=O)NCC3CCCO3)c2c1 (stereo not drawn),i,-0.3,2.3,12.6,9.5,3.5,-1.2,·,0.2,-1.9
C=C(C(=O)c1ccccc1)C(C)C(=C)C(=O)c1ccccc1,i,-3.2,-6.4,·,·,·,4.0,117.5*,-8.7,87.2*
COc1ccc(S(=O)(=O)Nc2ccccc2C(=O)NC(C)(C)C)cc1OC,·,·,8.0,·,·,·,5.3,-13.7,-4.1,3.2
COc1ccccc1NC(=O)/C(C#N)=C/c1ccncc1,i,-0.3,2.1,3.5,-3.4,-2.5,0.9,-1.1,3.0,15.3
O=C(CSc1ncnc2ccccc12)Nc1cc(S(=O)(=O)N2CCCCC2)ccc1Cl,·,·,-18.5,·,·,·,1.1,15.7,0.2,-23.5
Cc1ccc2[nH]c3c(c2c1)CN(C(=O)CN1CCN(Cc2ccc4c(c2)OCO4)CC1)CC3,·,·,-0.9,·,·,·,-30.8,-13.8,32.0,-10.8
CCCN(CC1CC1)C(=O)COC(=O)c1ccc(C)cc1O,·,2.8,·,-17.7,-34.0,-0.2,·,-1.5,·,5.0
CC1CCCN(S(=O)(=O)c2ccc(C(=O)Nc3nnc(-c4ccco4)o3)cc2)C1 (stereo not drawn),i,3.2,5.9,-38.0,-59.5,-2.0,5.6,-0.4,13.9,9.3
CCOc1ccccc1-n1c(SCC(=O)N2CCCC2)nnc1-c1ccc(O)cc1,·,·,-14.5,·,·,·,-3.3,4.0,-10.3,-16.7
CCOC(=O)c1nn(-c2ccc(C)c(Cl)c2)c(=O)c(C#N)c1C,i,-2.9,-2.4,-2.5,5.0,-1.0,-2.4,0.9,-4.4,-44.8
COc1nc(-c2ccc(Cl)cc2)ccc1-c1noc(-c2ccco2)n1,·,·,13.8,·,·,·,-0.1,-1.1,-9.0,-4.1
COc1cc2[nH]c(=O)n(Cc3ccc(C(=O)NC4CCCC4)cc3)c(=O)c2cc1OC,·,·,-20.4,·,·,·,0.9,4.0,-6.2,-4.1
NC(=O)C(c1cccc(Cl)c1)c1ncc(C(F)(F)F)cc1Cl (stereo not drawn),·,·,5.7,·,·,·,-3.7,-1.2,5.0,1.2
N#CCSc1nc2cc(C(=O)N3CCC(C(N)=O)CC3)ccc2c2nc3ccccc3n12,·,·,8.2,·,·,·,-3.8,6.3,-7.3,98.2*
CC(C)(C)NC(=O)COc1ccc(CNCc2cccnc2)cc1,i,1.9,15.3,12.5,2.1,0.8,-1.1,-5.9,15.2,1.8
CCOc1ccccc1N1CCN(C(=O)CC(C)(C)C)CC1,i,-3.7,9.3,-6.8,-7.8,2.0,0.7,1.7,-10.8,10.7
O=C(Cc1ccccc1)Nc1ccc(NC(=O)c2cccc(Cl)c2)cc1,·,·,-5.5,·,·,·,0.1,-0.7,9.8,-2.5
COc1ccc(-c2oc(=O)c3cc(OC)c(OC)cc3c2-c2cc(F)cc(OC)c2)cc1,i,0.5,·,4.7,7.1,3.2,·,-0.1,·,-9.8
CC(C)[C@H](NC(=O)c1ccccc1)C(=O)OCC(=O)NCc1ccc(F)cc1,i,-2.2,-11.4,9.2,9.8,-0.2,1.4,-5.1,-15.2,2.9
C[C@@H]1CN([C@H](C)CO)C(=O)c2cc(NC(=O)Cc3cn(C)c4ccccc34)ccc2O[C@H]1CN(C)S(=O)(=O)c1ccc(F)cc1,i,-2.0&1.7,·,10.8&-5.2,10.5&0.7,1.3&-1.5,·,3.8,·,-1.6
Cc1nnc(SC(C(=O)c2ccccc2)c2ccccc2)[nH]c1=O (stereo not drawn),i,7.9,-18.2,-3.9,0.8,2.0,?,-3.9,-2.7,3.6
O=C1c2ccccc2C(=O)N1CCCCSc1nc2ccccc2o1,·,·,-5.2,·,·,·,20.5,-1.6,9.9,-1.2
# More results follow.
SMILES,FGF22 binding,MLL AF4-AF9 inh,Calb FLC,rRNA inh HTS,rRNA inh HTS OD600,rRNA inh HTS RFP,RanGTP-Impb inh,Beta cell apopt,T cruzi inh,ALR H2O2 inh
Cc1cccc(N=Nc2c(O)[nH]c3ccc(Br)cc23)c1,i,-11.1,-5.6,1.5,-5.3,-2.1,-10.2,-6.6,12.1,-1.7
CC(C)c1ccc(O)c(NC(=S)NC(=O)c2cccnc2)c1,i,-0.1,27.1,-51.3,-77.5,-13.7,-0.8,2.9,5.3,13.6
CCCCNS(=O)(=O)c1ccc(NC(=O)Cc2ccc(OC)cc2)cc1,i,-1.8,19.6,-3.0,-8.2,3.9,·,12.6,-5.6,-6.2
COc1ccc(-c2nn(-c3ccccc3)cc2/C=N/NC(=O)c2ccc(Br)o2)cc1,·,·,-12.2,·,·,·,0.5,·,21.2,-0.8
Nc1nc(N)c2c(ccc3nccc32)[nH]1,i,3.4,24.0,-23.5,-53.8,5.8,0.8,11.5,50.1,-10.1
CCCNC(=O)NCCc1c(C)[nH]c2ccccc12,i,3.1,-2.7,3.1,3.2,2.6,2.7,-3.0,2.9,-13.8
Cc1c(NC(=O)Nc2cccc(F)c2)c(=O)n(-c2ccccc2)n1C,i,-2.1,-1.3,6.9,11.4,-0.6,-2.3,-0.5,-0.5,-6.6
COc1ccc(-c2noc(N3CCC(C(=O)NCc4ccccc4Cl)CC3)n2)cc1,i,-5.7,4.0,6.7,13.8,-3.4,3.5,10.5,14.1,1.3
Cc1cccc(NC(=O)NCc2ccc3[nH]c(C)cc3c2)c1,i,0.3,1.4,3.8,4.1,4.2,0.3,-0.3,-5.1,-5.8
O=C(c1cccc(S(=O)(=O)Nc2ccccc2Cl)c1)N1CCCCCC1,i,-3.1,0.2,-7.2,-12.1,1.9,1.7,1.5,9.9,·
Cc1cc(C)n(C2CCCCC2OC(=O)c2ccccc2)n1 (stereo not drawn),·,·,3.4,·,·,·,-1.4,-3.2,-4.3,4.7
C=CCOc1ccc(C2NC(=O)NC(C)=C2C(=O)OC)cc1 (stereo not drawn),·,·,-5.3,·,·,·,2.6,-1.6,-7.1,·
COC(=O)CC1=NN(c2ccc(OC)cc2)C(=O)C1,i,-0.9,-5.3,9.5,9.4,-2.1,-1.3,-3.3,-12.5,·
Cn1cc(S(=O)(=O)CC(=O)N2CCCc3ccccc32)c2ccccc21,i,-15.1,-0.7,-0.3,-5.5,2.4,1.6,0.1,-4.2,-15.5
Cc1cccc(C(=O)O)c1[N+](=O)[O-],i,·,·,1.6,-2.5,-2.1,·,-3.8,·,-50.0
NC(=S)NC(=O)/C=C/c1ccccc1,i,-1.0,1.7,20.9,15.4,4.9,3.8,-3.9,10.8,5.5
O=C1/C(=C/c2ccco2)Oc2c1ccc(O)c2CN1CCCCC1,·,·,-9.7,·,·,·,-62.3,-2.8,0.0,1.6
Cc1cc(C)cc(-c2nnc(SCC(=O)N3CCN(C(=O)c4ccco4)CC3)o2)c1,·,·,-21.4,-13.6,-13.4,1.5,-2.6,-2.5,18.9,6.2
CCN(CC)C1CC(=O)N(c2cccc(Cl)c2)C1=O (stereo not drawn),i,-3.4,-4.6,21.6,8.4,2.5,-2.6,-4.2,15.3,·
O=C(C(Cc1ccccc1)n1cccc1)N1CCN(Cc2ccccc2)CC1 (stereo not drawn),·,·,-3.0,·,·,·,?,-10.6,4.8,·
CC1CCCN(S(=O)(=O)c2ccc3oc(=O)ccc3c2)C1 (stereo not drawn),i,-1.2,0.5,3.9,5.0,-1.0,2.7,0.8,-17.0,-8.5
CCCCN(C)C(=O)C1CCN(Cc2cccc(OCc3ccccc3)c2)CC1,i,3.7,-27.1,-2.7,0.2,6.6,4.9,-0.6,23.3,-3.5
COC(=O)c1sccc1NC(=O)/C=C/C(=O)O,·,·,-3.4,·,·,·,-1.1,-1.6,-9.0,21.8
COc1ccc(C(=O)N2CCC(=O)N(C(CO)Cc3ccccc3)CC2)cc1 (stereo not drawn),i,-5.8,35.6,4.8,-3.5,7.8,5.2,-5.2,7.0,-0.7
NNC(=O)c1cccc(COc2ccc(Br)cc2)c1,·,·,-35.6,·,·,·,3.2,-5.9,19.4,96.7*
# Additional entries
SMILES,FGF22 binding,MLL AF4-AF9 inh,Calb FLC,rRNA inh HTS,rRNA inh HTS OD600,rRNA inh HTS RFP,RanGTP-Impb inh,Beta cell apopt,T cruzi inh,ALR H2O2 inh
CCOC(=O)C1=C(c2ccccc2)N=c2s/c(=C\c3cc(OC)c(OC)c(OC)c3)c(=O)n2C1c1cccs1 (stereo not drawn),·,·,2.3,·,·,·,0.8,-2.7,63.3*,-1.6
COc1cc2c(cc1OC)CN(C(=O)/C=C/c1ccc(F)cc1)CC2,i,0.3,0.3,-17.8,-24.1,-1.7,-2.8,-5.4,-3.4,-0.7
COc1ccccc1OCC(=O)O/N=C(\N)c1ccccn1,i,0.0,0.2,·,·,·,-4.0,·,-11.1,·
COC(=O)CNC(=O)CN1C(=O)N(c2ccccc2)C(N(O)C(=O)Nc2ccccc2)C1(C)C (stereo not drawn),·,·,-4.8,·,·,·,4.8,-0.3,-11.1,-4.5
Nc1nc(N)c(Cc2ccc(Cl)cc2Cl)c(N)n1,i,1.8,12.2,-28.6*,-13.6*,-7.4*,-3.0,10.3,-15.5,-2.2
Cc1ccnc(NC(=O)CCC(=O)N(CC(=O)NC2CCCCC2)Cc2cccs2)c1,i,-0.5,29.8,11.9,17.1,0.9,1.7,-22.9,11.9,-4.9
CCOc1ccc(CCNC(=O)C(C)n2nc(C)n3c(cc4occc43)c2=O)cc1OCC (stereo not drawn),·,·,-3.1,·,·,·,?,-4.2,13.6,-2.1
CC(NC(=O)c1cc2ccccc2oc1=O)c1ccc(O)cc1 (stereo not drawn),i,1.1,-1.2,-4.8,-9.0,-0.3,-0.1,1.6,-13.5,61.3
Cc1ccc(Nc2cccc(C(F)(F)F)c2)nn1,i,1.2,-3.5,-2.1,0.3,1.3,0.4,-2.0,5.3,-7.1
Cc1ccc2c(CN3CC(C)CC(C)C3)cc(=O)oc2c1C (stereo not drawn),i,1.6,1.8,-4.8,-10.7,-3.0,-1.3,8.3,19.9,·
CC1(C)CCN(Cc2ccccc2)C1CC#N (stereo not drawn),·,·,-13.5,·,·,·,7.7,3.2,-8.0,·
O=C(COc1ccc(Cl)cc1)NNC(=O)C(=O)N1CCCCC1,·,·,9.2,·,·,·,-3.0,-2.1,0.2,-3.1
